# Source: PubChem (ICCB-Longwood Screening Facility, Harvard Medical School)
# Sa growth inh: S. aureus growth inhibition; AID 720641; relative growth, % (concentration not given with the values); S. aureus RN4220 growth, OD600, 20 h, 42 °C; active compounds read low; 170,000 tested, 0.53% active;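 active = growth at 42 °C up to 50% and 20 or more points under that at 30 °C, or under 10% at both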;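 note: 300 nL library stock went into each well; scaled to the means of positive and negative controls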
# HCMV UL50-53 inh: disrupts HCMV UL50-UL53 complex binding. 190,000 tested, 0.15% active. AID 1918969. HTRF UL50-UL53 interaction, normalized percent inhibition. inhibition, % (test concentration not listed);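 active = both replicates at 50% or more, plus weaker picks with an unusually low signal ratio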;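 note: stock transfer was 100 nL into about 20 µL; 0% = negative control wells and 100% = wells with untagged competitor protein; inactives centre near -12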
# GIV Gai3 FP: blocks GIV peptide binding to rat Galpha-i3; Galpha-i3/FITC-GIV peptide fluorescence polarization, 90 min; active compounds read low; scaled: aluminum fluoride 0%, vehicle 100%; P08753; percent of control (FP), % (test concentration not listed); 210,000 tested, 0.42% active;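 active = replicate mean at 85% of control or lower, very high polarization wells dropped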;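 note: lower values mean more displacement of the GIV peptide from Galpha-i3; wells of about 15 µL received 100 nL stock; the first replicate is given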
# Target sequence (P08753 whole entry, looked up): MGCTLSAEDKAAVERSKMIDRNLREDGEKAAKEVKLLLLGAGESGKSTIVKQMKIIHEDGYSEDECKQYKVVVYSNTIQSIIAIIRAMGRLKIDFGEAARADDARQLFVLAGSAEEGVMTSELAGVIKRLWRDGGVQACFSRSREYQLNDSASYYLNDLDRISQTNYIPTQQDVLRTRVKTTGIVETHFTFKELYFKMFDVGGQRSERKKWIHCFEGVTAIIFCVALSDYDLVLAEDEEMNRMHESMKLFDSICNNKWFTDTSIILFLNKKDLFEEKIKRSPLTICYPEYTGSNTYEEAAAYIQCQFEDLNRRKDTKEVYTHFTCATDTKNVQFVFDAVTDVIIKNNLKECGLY
# Sa growth inh second temp: recorded beside Sa growth inh, whose call it bears; relative growth, %; measured here: growth at 30 °C;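 optical density after 20 h as mean of two plates; 100% = untreated growth and lower means inhibition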
# * = called active by the depositor; nt = no result given; & = joins results of further samples. Random draw from the library; about 0.8% have a hit in one of these screens.
SMILES,Sa growth inh,Sa growth inh second temp,HCMV UL50-53 inh,GIV Gai3 FP
O=C(CSc1c(-c2ccccc2)c2cc(Cl)ccc2[nH]c1=O)NCc1ccco1,84,69,nt,99
Cc1nc2nc(-c3ccc(C(C)(C)C)cc3)nn2c(C)c1CC(=O)N1CCCCC1,nt,nt,1,100
O=C(NCCN1CCN(c2ccccc2F)CC1)C1COc2ccccc2C1 (stereo not drawn),94,91,nt,97
CCN(CC)C(=O)c1cc2c(=O)oc3ccccc3c2n1CC,nt,nt,-6,100
COc1ccc(-c2nnn(CCC(=O)O)n2)cc1,132,110,-2,110
O=C(NCCO)C1=C(N2CCOCC2)/C(=C\c2ccccc2)CC1,100,91,-34,nt
CCn1cc(C(=O)O)c(=O)c2cc(F)c(N3CCN(C(=S)Nc4ccc5c(c4)OCO5)CC3)cc21,0.2*,63*,-7,108
O=C(CC12CC3CC(CC(C3)C1)C2)Nc1ccc2[nH]c(=O)[nH]c2c1,100,94,nt,99
CCOc1ccc(C(c2c(C)[nH]n(-c3ccccc3)c2=O)c2c(C)[nH]n(-c3ccccc3)c2=O)cc1OC,97,82,29,96
COc1ccc(CCNC(=O)c2ccc3c(c2)CCN3S(=O)(=O)c2ccccc2)cc1OC,91,94,7,104
CC(C)c1ccc(C2Oc3ccc(Br)cc3C3CC(c4ccc(Cl)cc4)=NN32)cc1 (stereo not drawn),nt,nt,-11,103
CCN(C(=O)c1cccs1)c1ccccc1,105,109,5,96
COc1ccc(C2N=C(Nc3ccc(C(C)C)cc3)Nc3nc(C)cc(=O)n32)cc1OC (stereo not drawn),nt,nt,13,98
CN(Cc1nc2ccccc2n1C)C(=O)c1ccc(Cl)cc1,89,82,-11,99
COc1cccc(CSc2nc3ccccc3c3nc(CCn4c(C)nc5ccccc54)nn23)c1,130,92,nt,108
CCn1c2c(c(=O)n3ncc(C(=O)N4CCN(c5ccccc5)CC4)c13)CN(Cc1ccc(OC)cc1)CC2,105,101,nt,109
COC(=O)CC1Oc2ccccc2N(Cc2ccccc2)C1=O (stereo not drawn),83,83,2,108
Cn1c(=O)oc2cc(S(=O)(=O)NCCC(=O)Nc3ccc(F)c(Cl)c3)ccc21,105,68,-8,109
CC1(C)C/C(=N/O)c2ccoc2C1,106,96,-17,102
CCN1CCN(C(=O)c2cnc3sccn3c2=O)CC1,nt,nt,-16,108
COc1ccc(N2CCN(C(=O)c3nn(-c4ccc(C)cc4)c(=O)n(C)c3=O)CC2)cc1,102,55,nt,102
Cc1cc(C(=O)N/N=C/C(C)(C)C)nn1C,107,99,-9,109
Cc1csc(NC(=O)CSc2ccc(Cl)cc2)c1C(N)=O,103,101,2,100
NC(=O)CSc1ccccc1NC(=O)c1cc(-c2cccs2)nn1-c1ccccc1,94,83,0,nt
Cc1nn(-c2ccc(F)cc2)c2sc(C(=O)N(Cc3ccco3)Cc3cccs3)cc12,102,95,3,nt
O=C(Nc1ccnn1C1CCCCC1)c1cccnc1Nc1ccccc1F,97,86,-8,nt
O=C(Nc1ccc(C(=O)N2CCOCC2)cc1)c1cnn2c(C(F)F)cc(-c3ccccc3)nc12,nt,nt,-10,108
COc1ccc(-n2ncc(C(=O)Nc3ccccn3)c2C2CCN(C(=O)OC(C)(C)C)CC2)cc1,110,80,-15,101
CN1CCN(C(=O)CN2C(=O)/C(=C/c3ccccc3)SC2=S)CC1,95,86,-59,100
O=C(CCn1c(=O)c2ccccc2n(CC(=O)Nc2cccc(F)c2)c1=O)NCCc1ccccc1,107,91,3,105
Cc1ccc(NC(=O)CSc2nc3c(cc2C#N)CCCCC3)cc1,nt,nt,-19,99
O=S(=O)(Cc1ccccc1Cl)NCc1cccnc1,100,99,1,110
Cc1nn(-c2cc(N3CCCC3)ncn2)c(C)c1CCC(=O)N1CCOCC1,nt,nt,0,96
CCOC(=O)Cc1ccc(NC(=O)NCc2cccn2Cc2ccccc2)cc1,91,92,nt,103
Cc1c(C(=O)Nc2ccc(F)cc2)sc2nc[nH]c(=O)c12,92,107,nt,114
Cc1cc(-n2c(SCc3ccccc3F)nc3[nH]ncc3c2=O)ccc1Cl,40,37,nt,103
COc1cc(NC(=O)CCc2nc3sc4c(c3c(=O)[nH]2)CCCCC4)cc(OC)c1,nt,nt,9,103
C=Cc1ccc(CN2C(=O)N(c3ccccc3)C3CS(=O)(=O)CC32)cc1 (stereo not drawn),107,93,-25,97
COc1ccccc1CN1C(=O)CN(C2CCCCCC2)C(=O)C1c1ccc(C)cc1 (stereo not drawn),123,89,nt,108
COc1ccc(OC)c(NC(=O)c2ccc3c(SCC(=O)O)c4c(nc3c2)CCCC4)c1,104,88,-37,99
COc1ccc(C)cc1NC(=O)CN(C)S(=O)(=O)c1ccc(Br)s1,97,85,nt,100
Cc1nnc(SCC(=O)N2CCc3ccccc3C2)s1,92,85,-8,105
Cc1cc(C)c(S(=O)(=O)Nc2cc3c(C(=O)OC(C)C)c(C)oc3c3ccccc23)c(C)c1,nt,nt,-10,105
Cc1cc2ccccc2n1-c1ccc(C(=O)N2CCC(C(=O)NC3CC3)CC2)s1,120,85,8,106
Nc1nc(CCC(=O)OCC(=O)Nc2ccc(F)cc2)nc(Nc2ccccc2)n1,80,84,-20,nt
O=C(COC(=O)CCc1ccc(S(=O)(=O)N2CCOCC2)cc1)Nc1ccccc1OC(F)F,101,93,-30,nt
CCOc1ccc(CCNC(=O)CCCn2c(=O)c3cccn3c3ccccc32)cc1,93,80,-20,101
CCOc1ccc(-c2nc(C#N)c(NCCCOC)o2)cc1,101,73,nt,100
O=C(CN1C2=NCCN2c2ccccc21)c1ccc(O)cc1,120,82,-2,102
CC(C)(C)OC(=O)N1CCC(c2c(C(=O)N3CCN(C(=O)c4ccco4)CC3)cnn2-c2cccc(Cl)c2)CC1,109,88,nt,101
CCOC(=O)c1sc2cccc(F)c2c1S(=O)(=O)N1CC=C(c2ccccc2)CC1,nt,nt,6,100
CC1CCCC(C)N1C(=O)Cn1c(=O)sc2ccccc21 (stereo not drawn),98,89,-8,102
Oc1ccc(C=Nc2ccc(Nc3ccccc3)cc2)c(O)c1,99,80,2,6.8*
O=C(O)/C=C/c1ccc(C(F)(F)F)cc1,95,90,-11,nt
COc1ccccc1CNC(=O)CCn1c(=O)c2ccccc2n(CC(=O)Nc2ccc(Br)cc2F)c1=O,117,92,-9,105
O=C(NCc1cccs1)c1cc(Br)cs1,101,101,-4,103
Fc1ccccc1N1CCN(c2nccn3nc(-c4ccccc4)cc23)CC1,nt,nt,10,104
Cc1ccc(Nc2c(-c3ccc(O)cc3)nc3nc[nH]n23)cc1,nt,nt,10,102
CCCc1nn2c(=O)cc(COC(=O)c3cccc(NC(=O)CCc4ccccc4)c3)nc2s1,107,95,nt,102
Cc1cc(C)cc(N2C(N)=NC(N)=NC2c2cccc(Cl)c2)c1 (stereo not drawn),105,77,nt,103
# The results go on:
SMILES,Sa growth inh,Sa growth inh second temp,HCMV UL50-53 inh,GIV Gai3 FP
CCc1ccc(OCC(=O)c2ccc(O)c(CN(C)C)c2O)cc1,92,95,1,nt
CCN(CC)c1nc2c(S(=O)(=O)c3ccc(C)cc3)nnn2c2ccsc12,107,81,nt,109
Cc1ccc(OCc2ccc(-c3nc(C#N)c(N4CCC(C)CC4)o3)o2)cc1,101,86,-29,96
COc1ccc(-c2noc(N(C)CC(=O)N3CCN(c4cccc(Cl)c4)CC3)n2)cc1,110,96,0,106
Cc1cc(C)c(Cn2c(C(O)c3ccccc3)nc3ccccc32)c(C)c1 (stereo not drawn),94,88,-1,109
C[N+]12CCC(CC1)C(OC(=O)C(O)(c1ccccc1)c1ccccc1)C2 (stereo not drawn),99,97,-13&-14,nt
CCc1ccc(NC(=O)Cn2c(=O)cc(C)c3c(C)nn(C)c32)cc1,89,94,-8,103
O=C(c1ccccc1)c1cc2ccc(O)cc2oc1=O,102,79,-154,nt
c1ccc(-c2nnc(SCC3COc4ccccc4O3)nc2-c2ccccc2)cc1 (stereo not drawn),95,107,nt,102
Clc1nc2c(Cl)cccc2s1,82,80,-36,101
COC(=O)c1ccc(-c2ccc(C(=O)N3CCCN(C)CC3)cc2)cc1,96,92,-9,nt
Cc1ccc(CNCc2ccccc2)s1,88&97,100&82,4&6,112&103
COC(=O)c1cc(NS(=O)(=O)c2ccccc2)cc(C(=O)OC)c1,82,87,-11,nt
CCOc1cc2c(c([N+](=O)[O-])c1)NC(c1cccc([N+](=O)[O-])c1)C1CC=CC21 (stereo not drawn),nt,nt,1,107
COc1ccc(CCNS(=O)(=O)c2ccc3c(c2)CCN3C(=O)C2CCC2)cc1OC,89,86,-10,100
Clc1ccc(CCNc2ncnc3c(-c4ccc(Cl)cc4)noc23)cc1,nt,nt,0,102
CCc1nnc(NC(=O)c2ccc(S(=O)(=O)N3CCCC3)cc2)o1,111,82,nt,102
CN(C)/C=N/c1nnc(N2CCN(c3cccc(Cl)c3)CC2)s1,94,70,-6,nt
CC(=O)NN=C(C1CC1)C1CC1,94,96,-19,nt
Cc1cnc(C(=O)Nc2ccc(S(=O)(=O)N3CCCC3)cc2)cn1,nt,nt,-12,97
CCSc1nc2c(sc3ccccc32)c(=O)n1CC1CCCO1 (stereo not drawn),87,78,4,99
O=C(CSc1nnnn1-c1ccccc1F)N1c2ccccc2Sc2ccc(Cl)cc21,102,88,-10,nt
Cn1c(=O)c2c(SCc3cccc(F)c3)nc(-c3ccc(F)cc3)nc2n(C)c1=O,83,97,3,101
COc1ccc(C2=C(C)C(N3CCC(C(=O)NCc4ccco4)CC3)=NS2(=O)=O)cc1,89,88,nt,100
CN(C)C1(CNC(=O)Nc2ccccc2)CCCCC1,92,90,-16,nt
CC(C1CC1)n1nccc1NC(=O)c1ccc(Cl)cc1 (stereo not drawn),nt,nt,-9,106
Cc1ccc(C(=O)N2CCN(S(=O)(=O)c3ccc4c(c3)NC(=O)CO4)CC2)cc1,nt,nt,-1,107
COc1ccc(OC(=O)C2CCN(c3ccc(C(F)(F)F)cn3)CC2)cc1,89,85,-39,105
CCCNC(=O)C(N)Cc1c[nH]c2ccccc12 (stereo not drawn),97,92,-20,102
CCOc1ccc(NCc2cccn2-c2nnc(N3CCC(C(=O)NCCc4ccc(OCC)c(OCC)c4)CC3)s2)cc1,109,86,-28,105
CCCc1c(C(=O)Nc2ccc3c(c2)OCCO3)cnn1-c1ccccc1,91,83,4,104
N#CCc1ccc(C(=O)c2cccs2)s1,nt,nt,-60,103
Cc1cccc(OCCCC(=O)O)c1,109,96,-4,nt
CC(C)N(Cc1nc2ccccc2c(=O)[nH]1)C(=O)c1cc(C2CC2)nn1-c1ccccc1,90,93,-2,nt
O=C(c1ccccc1Cl)N1CCC(n2cccc2)CC1,105,84,-24,104
O=C(NCc1ccncc1)c1cccc(Cn2cc(Br)cn2)c1,104,89,9,99

# Molecules shown so far that contain a tert-butyl group:
SMILES,Sa growth inh,Sa growth inh second temp,HCMV UL50-53 inh,GIV Gai3 FP
Cc1nc2nc(-c3ccc(C(C)(C)C)cc3)nn2c(C)c1CC(=O)N1CCCCC1,nt,nt,1,100
Cc1cc(C(=O)N/N=C/C(C)(C)C)nn1C,107,99,-9,109
COc1ccc(-n2ncc(C(=O)Nc3ccccn3)c2C2CCN(C(=O)OC(C)(C)C)CC2)cc1,110,80,-15,101
CC(C)(C)OC(=O)N1CCC(c2c(C(=O)N3CCN(C(=O)c4ccco4)CC3)cnn2-c2cccc(Cl)c2)CC1,109,88,nt,101

# (next part)
SMILES,Sa growth inh,Sa growth inh second temp,HCMV UL50-53 inh,GIV Gai3 FP
O=C(Oc1cc(=O)oc2c1c(=O)n1c3c(cccc23)CC1)c1ccco1,14,7,-15,110
CNCc1ccc(Br)cc1,85,89,-12,nt
Cc1nc(N2CCCCC2)c(C#N)c2c1COC(C)(C)C2,85,86,-15,98
CC1(C(=O)NC2CCCCC2)Cn2c(cc3occc32)C(=O)N1Cc1ccc2c(c1)OCO2 (stereo not drawn),nt,nt,-4,104
CC1NC(=O)NC2NC(=O)NC(C)C12 (stereo not drawn),101,111,2,103
O=C(NCCc1ccc(Cl)cc1)c1cc(-c2ccc(Cl)cc2)n[nH]1,85,94,nt,100
CCc1nccn1S(=O)(=O)c1cc(Br)ccc1Br,106,91,0,108
O=c1c2cc3c(cc2n(Cc2cccc(F)c2)c(=O)n1Cc1nc(-c2ccccc2)no1)OCO3,83,91,nt,100
COCc1cc(C)nc2c1C(=O)NC(c1ccc(C)cc1)N2Cc1ccccc1 (stereo not drawn),101,99,nt,104
COc1ccc(CNCc2cccs2)cc1Cn1ccnc1,84,63,-35,104
COc1cc(NC(=O)CN2C(=O)c3ccccc3Sc3ccc(C(=O)N4CCCC4)cc32)cc(OC)c1,117,85,nt,109
N#Cc1ccc(Cl)cc1NC(=O)CSc1ccccn1,99,101,12,nt
COc1ccc(C)cc1S(=O)(=O)NCc1ccccc1,126,88,-12,104

# Not a retest: an excerpt of the list.
SMILES,Sa growth inh,Sa growth inh second temp,HCMV UL50-53 inh,GIV Gai3 FP
CC1(C(=O)NC2CCCCC2)Cn2c(cc3occc32)C(=O)N1Cc1ccc2c(c1)OCO2 (stereo not drawn),nt,nt,-4,104
CC1NC(=O)NC2NC(=O)NC(C)C12 (stereo not drawn),101,111,2,103
O=C(NCCc1ccc(Cl)cc1)c1cc(-c2ccc(Cl)cc2)n[nH]1,85,94,nt,100
CCc1nccn1S(=O)(=O)c1cc(Br)ccc1Br,106,91,0,108
O=c1c2cc3c(cc2n(Cc2cccc(F)c2)c(=O)n1Cc1nc(-c2ccccc2)no1)OCO3,83,91,nt,100
